eIF4H FP inh – human eIF4H binding inhibitors, primary screen, translation initiation inhibitor project, biochemical, uHTS, fluorescence polarization; eIF4H fluorescence polarization binding assay; inhibition, % at 35 µM; 290,000 tested, 0.94% active; AID 2012, 2009;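 active = 50% or more with normal probe brightness, or confirmed in later tests; about a fifth of its hits are not listed in these tables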;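 also: calls also rest on retests at 20 µM and on dose response follow-up; 0% = protein and probe with vehicle and 100% = probe without protein; strong numbers were not always called active; many hits fall short of the cut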
PABP polyA inh – PABP poly(A) RNA binding inhibitors, primary screen, biochemical, fluorescence polarization, uHTS | inhibition, % at 35 µM | 290,000 tested, 1% active;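 active = 50% or more with normal probe brightness, or confirmed in later tests; about a fifth of its hits are not listed in these tables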;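 also: calls also rest on retests at 20 µM and on dose response follow-up; controls were probe without protein and protein plus probe with vehicle; some compounds called inactive have numbers as strong as hits; many hits fall short of the cut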
Target sequence (P11940 whole entry, looked up): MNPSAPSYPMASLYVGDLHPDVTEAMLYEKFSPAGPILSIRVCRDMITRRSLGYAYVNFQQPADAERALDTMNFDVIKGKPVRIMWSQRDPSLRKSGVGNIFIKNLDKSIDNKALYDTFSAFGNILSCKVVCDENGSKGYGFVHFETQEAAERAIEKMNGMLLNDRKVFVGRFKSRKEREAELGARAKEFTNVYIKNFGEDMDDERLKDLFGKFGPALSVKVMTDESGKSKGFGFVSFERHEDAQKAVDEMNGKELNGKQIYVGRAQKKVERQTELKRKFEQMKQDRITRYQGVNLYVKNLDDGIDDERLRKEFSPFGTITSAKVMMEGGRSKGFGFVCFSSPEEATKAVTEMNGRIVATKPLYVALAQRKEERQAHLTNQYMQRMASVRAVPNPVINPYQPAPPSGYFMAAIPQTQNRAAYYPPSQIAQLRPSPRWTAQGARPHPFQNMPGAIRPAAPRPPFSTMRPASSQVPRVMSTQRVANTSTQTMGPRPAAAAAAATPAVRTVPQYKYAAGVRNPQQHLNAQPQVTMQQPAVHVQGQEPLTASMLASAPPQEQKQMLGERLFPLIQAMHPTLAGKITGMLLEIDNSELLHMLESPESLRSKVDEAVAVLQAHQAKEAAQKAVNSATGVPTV
Env fusion inh – inhibitors of HIV-1 Env-driven cell-cell fusion, primary screen, HeLa-JRFL effector, CEM21 target cells, luciferase; inhibition, % at 12.3 µM; 360,000 tested, 1.1% active; AID 651610, 2012;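 active = mean replicate inhibition score of at least 50 and every replicate individually at or above 50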;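 also: 0% = plate neutral controls and 100% = maraviroc near 300 nM; one replicate is shown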
CSC inhib – cancer stem cell viability inhibitors, primary screen, luminescence; cancer stem cell-like cells viability; inhibition, % at 7.5 µM; 300,000 tested, 1.1% active; AID 2717, 2010;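 active = mean at 75% or more and at least half the replicates too; tested in HMLE shEcad cells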;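 also: 0% = median of negative and 100% = median of positive control wells; the first replicate is given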
Rce1 inh – yeast Rce1p protease inhibitors, primary screen, biochemical, fluorescence, cell-free homogeneous; 290,000 tested, 0.27% active; AID 2563, 2010; yeast membranes, quenched prenylated peptide cleavage fluorescence; CAAX prenyl protease 2 (Saccharomyces cerevisiae (strain ATCC 204508 / S288c)), Q03530; calls only;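 active = fall in fluorescence gain of 50% or more versus controls, with final raw signal at or below 3038400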;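 also: plate controls were neutral control wells for no effect and wells lacking membranes for full effect; tested at 10 µM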
MT1-MMP act inh – blockers of MT1-MMP proenzyme processing, primary screen, HT1080 RFP-PRO-GFP cells, GFP/RFP fluorescence | Matrix metalloproteinase-14 (Homo sapiens), P50281 | GFP/RFP ratio fluorescence, overnight; percent of plate control window, DMSO zero | 360,000 tested, 0.061% active | GFP/RFP ratio change, % at 20 µM | AID 651647, 2012;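 active = GFP/RFP ratio change of at least 30% with cell ATP level not reduced by more than half and red fluorescence within 50% of control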; also: strong numbers were not always called active
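Read-out: GFP/RFP fluorescence ratio; Test system: RFP-PRO-GFP reporter HT1080 cells; Compound dosing: single-point 20 µM compound, 1% DMSO; Times: overnight compound exposure at 37 °C.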
UUG fidelity – modulators of yeast start codon fidelity, primary screen, whole organism, S. cerevisiae, single point, plate reader; S. cerevisiae UUG-firefly luciferase reporter, luminescence/redox ratio; activity score, % at 18.7 µM; 350,000 tested, 0.13% active; AID 602363, 2012;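 active = replicate mean at a twofold rise or more, about +100% in these data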;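 also: firefly luciferase made from a UUG start codon reports start codon fidelity; reporter light over untreated wells divided by growth signal over untreated wells; some hits fall short of that in this replicate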
MT1-MMP act inh RFP – recorded beside MT1-MMP act inh, whose call it bears; RFP signal change, %; measured here: RFP expression control read;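 0 = vehicle wells; hits needed this value within 50% of zero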
* marks the source's active call; other numbers are inactive results; i = inactive; / = not tested or not shown. These rows are one share of the data (hit frequency here may not be typical).

Sample of the layout (4 entries):
SMILES	eIF4H FP inh	PABP polyA inh	Env fusion inh	CSC inhib	Rce1 inh	MT1-MMP act inh	MT1-MMP act inh RFP	UUG fidelity
O=C(Nc1ccc(O)cc1)/C(=C\c1ccncc1)NC(=O)c1ccccc1	9	7	4	-15	i	1	1	-3
COc1ccc(C(=O)Nc2ccccc2C(=O)NC(C)C)cc1OC	1	-11	-7	-3	i	0	-2	6
CC1(C)CC(CC(=O)NC(=S)Nc2ccc([N+](=O)[O-])cc2)C(=O)O1 (stereo unspecified)	-6	-9	3	32	i	-3	-4	-11
O=c1[nH]c(C2CCN(S(=O)(=O)/C=C/c3ccccc3)CC2)nc2c1nnn2Cc1ccccc1	-2	5	17	0	i	0	-4	0

Results, repeating the preview:
SMILES	eIF4H FP inh	PABP polyA inh	Env fusion inh	CSC inhib	Rce1 inh	MT1-MMP act inh	MT1-MMP act inh RFP	UUG fidelity
O=C(Nc1ccc(O)cc1)/C(=C\c1ccncc1)NC(=O)c1ccccc1	9	7	4	-15	i	1	1	-3
COc1ccc(C(=O)Nc2ccccc2C(=O)NC(C)C)cc1OC	1	-11	-7	-3	i	0	-2	6
CC1(C)CC(CC(=O)NC(=S)Nc2ccc([N+](=O)[O-])cc2)C(=O)O1 (stereo unspecified)	-6	-9	3	32	i	-3	-4	-11
O=c1[nH]c(C2CCN(S(=O)(=O)/C=C/c3ccccc3)CC2)nc2c1nnn2Cc1ccccc1	-2	5	17	0	i	0	-4	0
O=C(NCc1ccccn1)c1n[nH]c(=O)c2ccccc12	3	-6	-5	-3	i	-1	4	-25
Cn1c(CNC(=O)c2cccs2)nnc1SCC(=O)Nc1ccc(Cl)cc1	-3	-12	8	-1	i	2	4	-9
O=C(CSc1ncccn1)Nc1ncc(C(F)(F)F)cc1Cl	-14	-6	9	-15	i	3	1	-10
O=C(CSCc1ccc(Cl)cc1)NN=C1CCCC1	0	6	-20	-7	i	0	3	/
O=C(NCC(c1ccco1)N1CCCCC1)c1ccc(S(=O)(=O)Nc2ccccc2)cc1 (stereo unspecified)	/	/	-4	30	i	-2	-1	/
CC1(C)CC(=O)C(C=NCCC2=CCCCC2)=C(O)C1	-10	2	27	-6	i	8	3	7
CN(C(=O)COC(=O)c1ccccc1NC(=O)c1ccco1)C1CCS(=O)(=O)C1 (stereo unspecified)	3	-4	-5	-5	i	-1	5	/
CCOc1ccc(CNCc2ccc(C(=O)O)cc2)cc1OC	-13	12	21	-1	i	-1	0	/
O=C(O)CCC(=O)Nc1ccc(S(=O)(=O)N2CCCC2)cc1	2	4	/	-5	i	0	3	/
O=c1ccc2c(-c3ccccc3S(=O)(=O)O)c3ccc(O)c(O)c3oc-2c1O	/	/	/	25	/	49*	-3.2*	-8
O=C(NCCc1ccccc1)C1CCC(CNS(=O)(=O)c2ccc(F)cc2)CC1 (stereo unspecified)	-2	-1	-7	-12	i	-3	0	-4
Cc1sc2nc(SCC(=O)Nc3ccc(S(N)(=O)=O)cc3)[nH]c(=O)c2c1C	7	-4	-42	-26	i	-4	0	-5
CCOc1ccc(N=C2Sc3nc4ccc(C)cc4cc3CN2CCOC)cc1	-8	-16	9	10	i	-1	-3	/
Cc1ccccc1CNC(=O)C(C)Sc1ccccc1 (stereo unspecified)	/	/	4	/	/	1	4	-4
CCC(C)(C)n1nnnc1CN(Cc1cc2cc(OC)ccc2[nH]c1=O)C1CCCC1	-1	-3	27	-44	i	-7	-5	-4
Clc1ccc(OCCN2CCOCC2)cc1Cl	1	13	-48	-8	/	3	-5	-14
CC(C)NC(=O)COc1coc(CN2CCN(c3ccccc3F)CC2)cc1=O	/	/	6	-5	i	4	3	-7
CN(/N=C/c1ccncc1)c1cnn(-c2ccc(F)c(Cl)c2)c(=O)c1Cl	-16	-21	-23	50	i	5	2	-21
C/C(=N\NC(=O)c1ccccc1O)c1ccc(NC(=O)Cc2ccccc2)cc1	7	7	-30	-5	i	-14	-7	-18
Cn1c(CC(=O)NNC(=O)c2ccc(F)cc2F)nc2ccccc21	/	/	/	-12	/	-2	1	-4
O=C(Nc1ccccc1)O[C@@H]1C[C@H]2CCCC(=O)N3CC[C@@H](C1)[C@@H]23	/	/	5	/	/	8	5	9
Cc1ccc(C(=O)Nc2ccc(C)c(S(=O)(=O)N3CCOCC3)c2)c(C)c1	-10	-12	/	-2	i	-2	-2	9
CCOc1ccccc1NC(=O)Nc1ccc2c(c1)CCC2	-5	2	-45	43	i	4	0	-6
O=C1CC(c2ccc3c(c2)OCCO3)Oc2ccccc21 (stereo unspecified)	-2	2	-62	-4	i	2	1	-13
Cc1cc(C)nc(Nc2n[nH]c(COc3cccc4ccccc34)n2)n1	7	4	-27	/	i	-2	-6	/
Cc1cc(CNC(=O)C(C)n2nc(C)c([N+](=O)[O-])c2C)c2ccccc2n1 (stereo unspecified)	-8	1	-4	-5	i	5	2	/
Cc1cc([N+](=O)[O-])ccc1NC(=O)C1CCCO1 (stereo unspecified)	-2	-6	-8	-11	i	0	3	/
CCc1nc2ccc(C(=O)NCc3ccc(OC)cc3)cn2c1N(CC)Cc1cccc(Br)c1	/	/	9	/	/	-8	-11	-8
CNC(=O)NC(=O)CSc1nc2cc(C(=O)OC)ccc2c(=O)n1-c1ccccc1	3	-3	/	3	i	5	5	-13
Cc1cccc(C(=O)Nc2ccc(C(=O)/C=C/c3ccncc3)cc2)c1	-6	-1	-71	30	i	3	-4	-23
Cc1ccc(C)c(N2CCN(S(=O)(=O)c3ccc4c(c3)CC(C)N4C(=O)C3CC3)CC2)c1 (stereo unspecified)	-10	2	9	-17	i	2	-14	-21
CCOc1ccc2[nH]c(=O)c(CN(CCO)C(=O)c3ccccc3F)cc2c1	-10	9	/	2	i	11	-2	0
CSc1nc2ccc3nc(NC(=O)c4ccccc4)sc3c2s1	-2	0	-79	19	i	7	0	-13
CC/C=C(\NC(C)=O)c1ccccc1	/	/	-17	-20	/	-2	1	-2
CC(Sc1ccc(Cl)cc1)C(=O)NCc1ccc2c(c1)OCO2 (stereo unspecified)	2	21	/	-19	i	-6	-2	-1
O=C(NC1CCN(Cc2ccc(Cl)cc2)CC1)c1cn(-c2ccccc2)nc1-c1cccnc1	/	/	/	-5	/	-6	-2	-18
Cc1cccc(C(=O)NNC(=O)c2ccc(S(=O)(=O)N3CCOCC3)cc2)c1	-12	7	-12	-5	i	-1	2	-9
CCN1C(=O)c2ccc(C(=O)Nc3ccc(O)cc3C)cc2C1=O	7	3	-4	-17	i	3	0	-37
CC(C)CCN(C(=O)c1ccncc1)c1c(N)n(Cc2ccccc2)c(=O)[nH]c1=O	/	/	-1	/	/	-12	1	-13
Cc1ccc(CNCc2cc3c(C(C)(C)C)nn(-c4ccccc4)c3[nH]c2=O)cc1	-9	-3	/	15	i	0	-1	-7
COCCNC(=O)COc1cccc(Oc2ccccc2)c1	-8	-5	/	3	i	1	-1	-6
CC1CN(c2ccc(S(=O)(=O)N3CCCC3)cn2)CC(C)O1 (stereo unspecified)	-5	7	-6	-24	i	8	4	-4
Cc1cccc(/C=N/n2c(-c3cc(-c4ccccc4)n[nH]3)n[nH]c2=S)c1	8	-12	-10	2	i	6	6	/
O=C(CNC(=O)C(c1ccccc1)c1ccccc1)N/N=C/c1cccnc1	3	0	-8	-10	i	0	1	-10
Cc1c(C)c2ccc(OCC(=O)NC3CCN(Cc4ccccc4)CC3)cc2oc1=O	-7	-2	-15	6	i	3	3	-6
O=C1CCc2cc(S(=O)(=O)Nc3ccccc3F)cc3c2N1CCC3	/	/	1	/	i	1	2	-15
COc1cccc2sc3cc(NCc4ccc5c(c4)OCO5)ccc3c(=O)c12	/	/	-193	-1	/	5	-1	-1
Fc1ccc(-c2csc3ncnc(N4CCc5ccccc5C4)c23)cc1	-2	-1	/	48	i	-9	-14	-12
O=C1C(=O)c2ccccc2C(O)=C1C1CCC(c2ccc(Cl)cc2)CC1 (stereo unspecified)	/	/	13	45	/	18	-23	-13
Cc1ccc2[nH]c3c(c2c1)CCN(C)C3	-2	-11	0	-2	i	0	2	-17
O=C(CSc1ncnc2nc[nH]c12)Nc1ccccc1C(F)(F)F	-9	30	0	-13	i	-2	1	-14
O=S(=O)(Nc1nc2ccccc2nc1NCC1CCCO1)c1ccccc1 (stereo unspecified)	0	-7	6	-6	i	1	2	/
CCCCN(C)CCNC(=O)c1cc2c(-c3ccccc3F)nn(C)c2s1	-7	1	7	12	i	0	0	-3
COc1ccc(C(C)(O)c2nc(-c3ccncc3)cs2)cc1 (stereo unspecified)	/	/	16	/	/	-6	-25	-34
Cc1cc(=O)n2[nH]c(C(=O)O)nc2n1	7	2	/	0	i	2	5	-18
CC(C)Cc1nc2oc3c(NCC4CCCO4)ncnc3c2c2c1CCC2 (stereo unspecified)	-14	-10	18	23	i	2	-10	-14

Next part:
SMILES	eIF4H FP inh	PABP polyA inh	Env fusion inh	CSC inhib	Rce1 inh	MT1-MMP act inh	MT1-MMP act inh RFP	UUG fidelity
CC(C)C1S/C(=N/N=C/c2cccs2)NC1=O (stereo unspecified)	0	-5	/	-10	i	4	5	/
Cc1nnc(SCc2nc3ccccc3nc2C)s1	-11	13	/	-15	i	6	9	-11
Cc1nn(C(C)C(=O)NCCCN2CCCC2)c(=O)c2nn(-c3ccccc3)c(C)c12 (stereo unspecified)	-2	2	16	-6	i	1	6	-14
CCc1nc2ccc(C(=O)Nc3cccc(NS(C)(=O)=O)c3)cn2c1N(C)C(=O)Cc1ccccc1	/	/	-2	/	/	-2	4	-9
COc1ccc(-n2cc(CNCCc3cnc[nH]3)c(-c3cccc(F)c3)n2)cc1	-6	-9	-3	-19	i	11	4	/
CCOc1ccc(N=C(NC#N)SCC)cc1	6	5	-41	-7	/	5	-2	-20
Cc1ccc(C2(CCNS(=O)(=O)c3ccc(C)cc3)CCOC(C(C)C)C2)cc1 (stereo unspecified)	-11	-9	/	-7	i	-9	-10	/
Cc1cc(C)c(S(=O)(=O)N2CCCCC2CCNC(=O)C(=O)NCc2ccco2)c(C)c1 (stereo unspecified)	/	/	15	11	i	-10	-8	7
CCOc1ccc(C(C)NC(=O)Cc2ccccc2)cc1OCC (stereo unspecified)	7	0	-12	-1	i	1	1	/
Cc1cc(C)c2c(=O)n(CC(=O)N3CCC(N4CCCCC4)CC3)sc2n1	4	1	11	-7	i	4	5	-10
CCOc1ccc(C(=O)N2CCN(c3ccccn3)CC2)cc1	-5	-7	31	-2	i	-5	-5	-20
Cc1sc2nc(CN3CCOCC3)nc(NS(=O)(=O)c3cc(Cl)ccc3Cl)c2c1C	/	/	0	-9	/	0	4	-8
CCC1(C)Cc2c(sc3nc4n(c(=O)c23)CCS4)CO1 (stereo unspecified)	-5	4	/	9	i	1	-1	-4
Cc1cccc(C(C)C)c1NC(=O)COC(=O)CN1C(=O)C2CC=CCC2C1=O (stereo unspecified)	/	/	-16	-11	i	-1	2	1
CC1CC1C(=O)OCC(=O)NNC(=O)COc1ccc(Br)cc1 (stereo unspecified)	/	/	-12	0	i	0	0	/
CC(=O)NCc1ccc(C(=O)CSc2nnc(C3CC3)n2C2CC2)cc1	/	/	/	-13	/	-6	-2	-3
CCCCCCCN(C(=O)CCl)c1cccc(C)c1	-8	-12	-5	-4	i	-12	-8	3
CCOC(=O)c1sc(NC(=O)CSc2n[nH]c(C)n2)nc1C	-5	0	13	-10	i	1	-2	-12
O=C(Cc1ccccc1)Nc1ccccc1Oc1ccccc1	-6	-16	7	-5	i	-3	-4	/
O=C(NC1CCCCCCC1)C1c2ccccc2C(=O)N1Cc1cccs1 (stereo unspecified)	-1	12	13	-17	i	-3	-3	/
